# Compound activity (PubChem)
# StopGo reporter = FMDV 2A StopGo reporter, luciferase signal. human cells with a luciferase reporter of 2A StopGo recoding; control for the full effect not named in the record. Potency, µM (titrated, usually from 57.9 µM), for the others: top-dose signal change, negative = less light. 1.2% of 410,000 active; active = well fitted falling curve with a large enough effect; inconclusive = small, poorly fitted or top-dose-only effect; inactive = no such curve, though single readings can be large or run the other way; tested in HEK293T cells; also: % is scaled to controls: 0 for no effect and ±100 for the full control effect; nearly all actives have a fitted effect of over 45% in size; luciferase light after 4 h
# Cruzain inh Det = inhibitors of Trypanosoma cruzi cruzain with detergent; P25779; purified cruzain, Z-FR-AMC fluorescence, 0.01% Triton; Potency, µM, for inactives: max response, negative = inhibition, hits mostly inhibitors; 0.43% of 200,000 active; AID 1478; active = well fitted curve in the direction sought with a large enough effect; inconclusive = small, poorly fitted or top-dose-only effect, or another doubt; inactive = no such curve, though single readings can be large; an effect the other way counts as inactive or inconclusive;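 also: plate controls were neutral wells for no effect and buffer without enzyme for full effect; nearly all actives have a fitted effect of over 40% in size; top concentration of the series not given in the record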
# Target sequence (P25779 123-467 limits assumed): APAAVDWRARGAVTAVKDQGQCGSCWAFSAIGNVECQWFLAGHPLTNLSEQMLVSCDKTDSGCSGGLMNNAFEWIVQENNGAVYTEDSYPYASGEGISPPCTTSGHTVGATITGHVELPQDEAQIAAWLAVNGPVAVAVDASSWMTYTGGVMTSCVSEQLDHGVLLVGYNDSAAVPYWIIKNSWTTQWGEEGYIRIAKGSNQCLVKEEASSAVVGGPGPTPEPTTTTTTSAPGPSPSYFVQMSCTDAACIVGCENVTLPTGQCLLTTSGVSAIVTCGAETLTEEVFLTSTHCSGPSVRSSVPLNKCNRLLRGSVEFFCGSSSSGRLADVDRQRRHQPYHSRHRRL
#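 Read-out: AMC fluorescence (360 nm excitation, 450 nm emission), four reads over 2 min, first-to-third difference used. Conditions: cruzain 1.5 nM, Z-FR-AMC 2 uM, pH 5.5 acetate, 5 mM DTT, 0.01% Triton X-100.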
# NS1 inh = inhibitors of influenza NS1 protein function | S. cerevisiae slowed by influenza A NS1, growth recovery by OD600 | Potency, µM (highest dose often 46.1 µM), without a hit: at the highest dose activity, positive = more growth | 0.4% of 270,000 active; also: actives are rising curves; nearly all actives have a fitted effect of over 50% in size
#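 Read-out: OD600 growth recovery of NS1-expressing budding yeast. Cells grown overnight at 30C in -URA glucose medium, washed, resuspended and diluted 1:100 in 2% galactose assay medium, pH 6.0. Same strain lacking NS1 served as positive control.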
# SARS PLpro yeast = blocks SARS-CoV papain-like protease in a yeast assay; Potency, µM (highest dose often 32.9 µM), for inactives: at the top dose activity, positive = growth rescue; 0.19% of 330,000 active; AID 485353; S. cerevisiae expressing SARS-CoV PLpro, growth rescue; control for the full effect not named in the record; also: 0% is about no effect; nearly all actives have a fitted effect of over 55% in size; growth read by luminescence after 48 h
# Cruzain inh noDet = blocks cruzain activity in detergent-free assay | Potency, µM, inactives show max response, negative = inhibition, most hits filed as inhibitors | P25779 | purified cruzain, Z-FR-AMC fluorescence, no detergent | 2.3% of 200,000 active; active = well fitted curve in the direction sought with a large enough effect; inconclusive = small, poorly fitted or top-dose-only effect, or another doubt; inactive = no such curve, though single readings can be large; an effect the other way counts as inactive or inconclusive;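 also: plate controls were enzyme without inhibitor for no effect and buffer without enzyme for full effect; nearly all actives have a fitted effect of over 40% in size; top concentration of the series not given in the record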
#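 Purified cruzain at 1.5 nM, pre-incubated 15 min with compound at room temperature in 100 mM sodium acetate pH 5.5, 5 mM DTT, 0.00005% Triton X-100. Reaction started with 2 uM Z-FR-AMC; AMC fluorescence increase over 60 s gives rate.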
# Lassa entry inh = Lassa virus entry inhibition | Lassa virus pseudotype entry inhibition, cell reporter; control for the full effect not named in the record | AID 540256 | 1.2% of 300,000 active | Potency, µM (doses to about 37.9 µM), inactives show at the top dose activity change, negative = inhibition, usual class: inhibitors; active means well fitted inhibition curve with a large enough effect; inconclusive means small, poorly fitted or top-dose-only effect, or effect the other way; inactive means flat fitted curve, though single readings scatter; tested in HEK293 cells; also: % is scaled to controls: 0 for no effect and ±100 for the full control effect; nearly all actives have a fitted effect of over 50% in size; luciferase read-out
# RE007 growth inh = less growth of the S. pombe RE007 Vpr strain | AID 651644 | Potency, µM (top dose mostly 92.2 µM), for the others: top-dose activity change, negative = less growth | 0.21% of 360,000 active | S. pombe RE007 Vpr strain, BacTiter-Glo ATP luminescence, 24 h; control for the full effect not named in the record; active = well fitted falling curve with a large enough effect; inconclusive = small, poorly fitted or top-dose-only effect; inactive = no such curve, though single readings can be large or run the other way;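 also: % is scaled to controls: 0 for no effect and ±100 for the full control effect; nearly all actives have a fitted effect of over 50% in size; the assay follows cell death caused by Vpr and the record does not say whether a fall means rescue or toxicity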
#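 Fission yeast strain RE007, carrying one chromosomally integrated HIV-1 vpr copy, was seeded at OD 0.01 in PMG+AL medium with 23 nL pinned compound. After 24 h at 30 °C and 99% humidity, viability was read by BacTiter-Glo luminescence.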
# MARV entry inh = inhibitors of Marburg virus binding or cell entry; Marburg virus pseudotyped entry inhibition, cell reporter; control for the full effect not named in the record; about a third of the inactives were read at about 46 µM; 1.8% of 300,000 active; Potency, µM (highest dose often 37.8 µM), for the others: at the highest dose activity change, negative = inhibition, actives largely listed as inhibitors; active = well fitted inhibition curve with a large enough effect; inconclusive = small, poorly fitted or top-dose-only effect, or effect the other way; inactive = flat fitted curve, though single readings scatter; tested in HEK293 cells; about a fifth of its hits are not listed in these tables; also: % is scaled to controls: 0 for no effect and ±100 for the full control effect; luciferase read-out
# The depositor's hits bear a star; ? = inconclusive; . = no result given; & = joins results of further samples; [ ] = dose if it differs, or a comment. Unless noted, calls follow the shape of the dose curve; as a rule, active means well fitted rising curve with a large enough effect; inconclusive means small, poorly fitted or top-dose-only effect; inactive means no such curve, though single readings can be large or run the other way. Potency is read from the fitted curve at half-maximal effect.
SMILES,StopGo reporter,Cruzain inh Det,NS1 inh,SARS PLpro yeast,Cruzain inh noDet,Lassa entry inh,RE007 growth inh,MARV entry inh
CC(=O)OCCN(CCCn1c(-c2ccncc2)nc2ccccc21)c1nc(CN2CCCCC2)cs1,-10%,.,-5%,-1%,.,.,-10%,.
Nc1cc(=O)nc(SCC(=O)NC2CCCCC2)n1-c1ccccc1,49%[activator],-5.9%,6%,5%,-3%,0%,21%,-2%
O=C(Cn1c(=O)c2cccn2c2ccccc21)NCCc1ccc(Cl)cc1,-18%,.,2%,4%,.,14%[46.1 µM],-16%,?
CN(C)S(=O)(=O)c1cccc(NC(=O)c2ccc(N3CCOCC3)c([N+](=O)[O-])c2)c1,?,-7.5%,-23%,9%,6%,?,-2%,?
CC(OC(=O)c1cccc(S(=O)(=O)N2CCCCCC2)c1)C(=O)Nc1ccc(S(N)(=O)=O)cc1 (configuration not stated),-16%,.,.,0%,.,3%,2%,16%
COCCN(Cc1cc2cc3c(cc2nc1Cl)OCO3)C(=O)Nc1ccc(OC)cc1,?,-5.3%,6%,-5%,5%,-13%,13%,9%
CCC/C=N/Nc1nnc(Cc2ccc(OC)c(OC)c2)c(=O)[nH]1,-8%,.,-2%,1%,.,-3%[46.1 µM],-23%,0%[46.1 µM]
c1ccc(CSc2ccc(-c3cccs3)nn2)nc1,58%[activator],.,.,2%,.,-14%,11%,-26%
Cc1ccc(S(=O)(=O)Nc2ccccc2C(N)=O)cc1,16%,1.8%,4%,.,0%,18%,24%,-2%
COc1ccc(C2CC(C(F)(F)F)n3nc(C(=O)NCCCn4ccnc4)cc3N2)cc1OC (configuration not stated),?,-2.0%,-2%,-1%,0%,21%,-2%,3%&3%
Cc1ccc(S(=O)(=O)N2CCC(C(=O)N[C@@H](C)C(=O)NCc3ccco3)CC2)cc1,-3%,2.0%,6%,8%,-1%,5%,23%,12%
COc1cccc(CNC(=O)Cn2ccc3cc(S(=O)(=O)N4CCCC4)ccc32)c1OC,-8%&-12%,-4.8%,-9%,8%,7%,-21%[46.1 µM],1%,.
Cc1ccc(-c2nc(N3CCOCC3)s[n+]2-c2ccccc2)cc1,38%[activator],-0.7%,-18%,-4%,-10%,?,.,?
O=C(c1ccc(N2C(=O)C3CC=C(Cl)CC3C2=O)cc1)N1CCOCC1 (configuration not stated),-12%,.,4%,0%,.,13%,18%,1%
COc1ccc(NS(=O)(=O)c2ccc(Br)s2)cc1OC,-2%,-2.1%,2%,7%,2%,-15%,-2%,-12%
Cc1cc(C)c(S(=O)(=O)N2CCN(c3ccc([N+](=O)[O-])c(NCC4CCCO4)c3)CC2)c(C)c1 (configuration not stated),-23%,-8.3%,-5%,0%,?,-5%,10%,?
O=[N+]([O-])c1ccc(N2CCN(Cc3cccc([N+](=O)[O-])c3)CC2)cc1,?,.,7%,-1%,.,-29%[46.1 µM],-13%,?
COc1ccc2cc(-c3cc(C(=O)O)c4ccccc4n3)ccc2c1,10µM*,-15%,-71%,-1%,-6%,0.35µM*,?,0.71µM*
CCOC(=O)c1cnc(SCc2ccc(C)cc2)nc1N,48%[activator],-3.0%,0%,-8%,-3%,?,-22%,-2%
Cc1nn(C)c2nc(-c3cccs3)cc(C(F)(F)F)c12,-26%,.,.,0%,.,1%,-4%,?
COc1ccc(Br)cc1C(=O)N/N=C/c1ccc2c(c1)n(C)c(=O)n2C,2%,-12%,1%,10%,-15%,2%,-7%,-25%
COCCN1Cc2cccc(C(=O)Nc3ccc(-c4nc5ccccc5[nH]4)cc3)c2C1=O,2%,-6.7%,7%,21%,17%,1%,7%,?
COc1ccc(C(=O)c2cn(Cc3ccccc3F)c3ccc(F)cc3c2=O)cc1,-16%,-3.1%,.,.,-4%,?,.,-5%[46.1 µM]
Cc1ccc(OCC(=O)N/N=C\c2ccc(C)o2)c(C)c1,12%,.,.,-2%,.,-13%,31%,15%[46.1 µM]
C=CCOc1ccc(C2/C(=C(\O)c3ccc4c(c3)OCCO4)C(=O)C(=O)N2CCCN2CCOCC2)cc1 (configuration not stated),-2%,.,-8%,-4%,.,.,9%,.
# Next section
SMILES,StopGo reporter,Cruzain inh Det,NS1 inh,SARS PLpro yeast,Cruzain inh noDet,Lassa entry inh,RE007 growth inh,MARV entry inh
O=C(c1ccc(F)cc1)N1CCN(c2ncccn2)CC1,1%,1.9%,2%[9.22 µM],3%,-9%,1%,17%,28%
O=C(NC1CCCC1)C(c1ccc(F)cc1)N(C(=O)c1csnn1)C1CC1 (configuration not stated),25%,.,-2%,-2%,.,12%,17%,16%[46.1 µM]
COC(=O)c1ccc(NC(=O)c2ccc3c(c2)C(=O)N(C)C3=O)cc1,5%,.,9%,4%,.,6%,3%,5%
COc1ccc(S(=O)(=O)N2CC(C)N(C(=O)N(C)C)C2C)cc1 (configuration not stated),2%,.,-1%,3%,.,0%,-14%,2%[46.1 µM]
COC(=O)c1ccccc1NC(=O)CN(Cc1ccccc1)S(C)(=O)=O,-2%,0.4%,-5%,2%,-6%,-3%,-5%,18%
O=C1CCCN1CN1CCCCC1,-22%,2.0%,5%,1%,2%,17%,3%,?
O=C(Oc1cccnc1)c1cc(S(=O)(=O)N2CCOCC2)ccc1Cl,-12%,0.4%,3%,4%,7%,1%,4%,11%
COc1ccc(C(=O)Sc2nncc3ccccc23)cc1,-7%,.,.,-2%,.,-2%[46.1 µM],-18%,-2%[46.1 µM]
CCOC(=O)Cc1csc(SCc2cc(=O)oc3cc(O)ccc23)n1,?,-7.0%,-8%,-12%,0%,-18%,32%,?
O=C(OCC(=O)N1CCN(S(=O)(=O)c2ccc(Cl)cc2)CC1)C1CCC1,-12%,.,.,2%,.,15%,1%,29%
CN1CCn2c1nc(N1CCCCC1)nc2=O,-19%,3.7%,1%,1%,1%,0%,-4%[3.69 µM],7%
COc1c(/C=N/Nc2nc(N3CCCCC3)nc(N3CCCCC3)n2)cccc1[N+](=O)[O-],-3%,0.5%,6%,-6%,-12%,-18%,4%,?
Cc1ccc(-n2ncc(C(=O)NC3CCCCC3)c2C2CCN(C(=O)OC(C)(C)C)CC2)cc1,-19%,-1.0%,.,.,8%,?,.,.
COc1cc(C(=O)NNC(=S)NC(=O)c2ccccc2C)cc(OC)c1OC,-22%,5.0%,-65%,7%,0%,?,2%,-17%
Cc1ccc(-c2csc(NC(=S)NC(=O)c3cc4ccccc4o3)n2)cc1,-3%,-0.1%,26%,-2%,6.3µM*,5%,26%,15%
O=C(Nc1ccccc1C(=O)N/N=C/c1ccccc1)c1ccco1,-25%,.,-9%,-10%,.,-20%,-25%,?
Cc1cccc(N2CCN(C(=O)c3ccoc3C)CC2)c1C,?,-3.4%,-4%,-3%,11%,?,1%,?
COc1ccc(Cn2c(CNS(=O)(=O)c3ccc(Cl)s3)nc3cccnc32)cc1,65%[activator],-4.9%,.,.,0%,-6%[46.1 µM],.,.
CN1CCN(/N=C/c2ccc(Br)cc2)CC1,22%,.,.,-6%,.,17%[46.1 µM],-14%,?
Fc1ccc(-n2nnc(-c3ccnc4ccccc34)n2)cc1,42%[activator],.,-3%,-1%,.,.,-5%,.
O=S(=O)(c1ccc(F)cc1)N1CCN(CC(O)COc2ccccc2F)CC1 (configuration not stated),-23%,.,-4%,0%,.,1%,-3%,-1%
Cc1ccc(S(=O)(=O)c2nnn3c2nc(NC2CCN(Cc4ccccc4)CC2)c2ccccc23)cc1C,-3%,.,14%,-3%,.,.,6%,.
Cc1ccc(CNC(=O)C2CCN(C(=O)c3cnn(-c4ccccc4)c3-n3cccc3)CC2)cc1,-21%,-2.4%,.,.,?,.,.,-13%[46.1 µM]
c1ccc(CCCc2nc(-c3cccnc3)no2)cc1,27%,.,-17%,-8%,.,6%[46.1 µM],0%,-5%[46.1 µM]
COc1ccc(NC(=O)CCN2C(=O)[C@@H]3[C@H](C2=O)[C@H]2C=C[C@@H]3C2)cc1,-1%,.,1%,0%,.,.,-5%,.
# Following part
SMILES,StopGo reporter,Cruzain inh Det,NS1 inh,SARS PLpro yeast,Cruzain inh noDet,Lassa entry inh,RE007 growth inh,MARV entry inh
Cc1cccc(NC(=O)c2ccc(S(=O)(=O)N3CCC(C)CC3)cc2)n1,32µM*,.,7%,-6%,.,2%,41%,?
COc1ccc(OC)c(S(=O)(=O)Nc2cccnc2)c1,86%[activator],-3.0%,2%,1%,1%,1%,9%,-20%
Cc1cccc(C2Nc3cccc4cccc(c34)N2)c1,23%,.,5%,1%,.,.,2%,.
O=C(CSc1ncccc1-c1nc2ccccc2[nH]1)Nc1ccc2c(c1)OCCO2,-28%,-9.8%,16%,-4%,0%,-3%,2%,?
COc1ccc(NC(=O)CSc2nc(O)cc(=O)n2-c2ccccc2)cc1,-13%,.,27%,1%,.,5%,2%,1%
CCCC[N+](CC#Cc1ccccc1)(CCCC)CCCS(=O)(=O)[O-],-9%,.,.,-1%,.,4%,7%,4%
CC(C)(C)n1nc2c(c1NC(=O)Cc1ccccc1)CS(=O)(=O)C2,-11%,.,.,-4%,.,6%,-2%,?
Cc1ncsc1CCC(=O)N1CCCC(Nc2ccc(F)c(F)c2)C1 (configuration not stated),-25%,.,5%,-1%,.,0%,-3%,-9%
CC(C(N)=O)N1CC(c2ccc(Cl)cc2)CC1=O (configuration not stated),2%,7.4%,0%,2%,-2%,9%,-2%,8%
Cc1ccc(NC(=O)C2CC(O)CN2C(=O)OCc2ccccc2)c(C)c1 (configuration not stated),-4%,.,4%,-1%,.,5%[46.1 µM],-6%,0%[46.1 µM]
Cc1ccc(-c2nnc(N3CCCCC3)c3ccccc23)cc1,-24%,.,-67%,-1%,.,.,37%,.
CC(=O)Nc1cccc(OC(=O)c2ccoc2C)c1,9%,2.5%,?,0%,6%,8%,5%,-3%
Cc1ccc(S(=O)(=O)Nc2c(C)nn(C)c2C)cc1,.,1.6%,2%,1%,0%,-23%,-2%,-10%
Cc1ccsc1C(=O)NNC(=O)COc1ccccc1Cl,18%,.,.,1%,.,4%,-22%,-1%[46.1 µM]
